Bm FixLJ act: B. multivorans fixK reporter activation. B. multivorans fixK-promoter GFP reporter, 18 h; stronger effect = higher value. z-score (concentration not given with the values). 29,000 tested, 0.3% active. AID 1918990;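 active means replicate mean overnight rise in green fluorescent reporter signal, 3 or more SD over negative controls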;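 further: score is relative to vehicle wells of the plate; 300 nL library stock went into each well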
Active calls of the source: *.

`COc1ccc(CCCc2nnc(SCC(=O)Nc3cc(C)ccc3C)o2)cc1` gave Bm FixLJ act -0.65.
Screening O=C(NCc1ccccc1Cl)c1nnc(Cc2ccc(Cl)cc2)o1 returned Bm FixLJ act 0.8.
For Cc1ccccc1OCCn1c(-c2ccc(Cl)cc2)nc2ccccc2c1=O the results were Bm FixLJ act -0.13.
Screening COc1ccc(Cn2c(=O)[nH]c3cc(C(=O)N4CCN(c5cc(C)ccc5C)CC4)ccc3c2=O)cc1 returned Bm FixLJ act 0.29.
Screening COc1ccc(C)cc1-c1cncc(C(=O)N2CCOCC2)n1 returned Bm FixLJ act 0.47.
CCc1nc(N2CCC(N3CCCC3)CC2)c2cnn(C)c2n1 was read as Bm FixLJ act 0.45.
For Cc1ccc(C)n1-c1nnc(N2CCCC(C(=O)NCc3ccc(F)cc3)C2)s1 (stereo not given) the results were Bm FixLJ act -0.43.
Screening CCc1ccc(NC(=O)Cn2c(=O)oc3cc(S(=O)(=O)NCc4ccccc4)ccc32)cc1 returned Bm FixLJ act -1.
`CC(C)c1noc(CCNC(=O)c2ccc(-c3nnn(C)n3)cc2)n1` gave Bm FixLJ act -0.62.
For O=C(NCc1ccccc1Cl)c1cc2c(s1)-c1ccccc1SC2 the results were Bm FixLJ act -1.4.
`CCc1nn(CC(=O)N2CCN(c3ccc(OC)cc3)CC2)c(=O)c2cc3sccc3n12` gave Bm FixLJ act -0.02.
`Clc1ccccc1-c1nnc(-c2ccccc2CNc2ccc(Br)cc2)o1` gave Bm FixLJ act -1.2.
Screening CC(C)CCNC(=O)C1CCN(C(=O)c2cc3sccc3n2Cc2ccc(Cl)cc2)CC1 returned Bm FixLJ act 0.56.
COc1ccc2cc(S(=O)(=O)c3ccccc3F)c(=O)oc2c1 was read as Bm FixLJ act 0.08.
`CCN1CCN(c2cc(C)c3cc(NC(=O)c4cc(Br)ccc4Cl)ccc3n2)CC1` gave Bm FixLJ act -2.
Screening Cc1cc(=O)n2[nH]c(NCc3ccc(F)cc3)nc2n1 returned Bm FixLJ act -1.
Cc1nnsc1CNC(=O)CCc1nc(-c2ccco2)no1 was read as Bm FixLJ act -0.61.
CCSc1oc(-c2ccc(F)cc2)nc1S(=O)(=O)c1ccc(C)cc1 was read as Bm FixLJ act 0.29.
O=C(Nc1ccc([N+](=O)[O-])cc1Cl)c1cc(Cl)ccc1O was read as Bm FixLJ act -8.7.
Cc1cc(C)c(NC(=O)c2cc3sc(Cl)cc3n2C)c(C)c1 was read as Bm FixLJ act 0.94.
`O=C(c1cccc2c3c([nH]c12)CCCC3)N1CC(O)C(Cc2cnccn2)C1` (stereo not given) gave Bm FixLJ act 0.61.
Screening O=C(CN1C(=O)c2cccc3cccc1c23)Nc1cccc(F)c1 returned Bm FixLJ act -1.4.
`O=C(c1cnccn1)N1CCCN(CC2CCCOC2)CC1` (stereo not given) gave Bm FixLJ act -0.42.
`COc1ccc(S(=O)(=O)NCCCc2csc(N)n2)cc1F` gave Bm FixLJ act -0.91.
For Cc1ccc2nc(COCC(=O)NCc3csc(N)n3)[nH]c2c1 the results were Bm FixLJ act 0.29.
O=C1CCC2(CCCN(C(=O)c3ccc(F)cc3)C2)CN1CCO (stereo not given) was read as Bm FixLJ act -0.62.
CCCCCSc1nnc(-c2ccc(Br)cc2)o1 was read as Bm FixLJ act 1.1.
`CNC(=O)CN1C(=O)COc2ccc(S(=O)(=O)N3CCCCCC3)cc21` gave Bm FixLJ act 0.35.
`CCOc1ccc(OCc2ccc(C(=O)Nc3cc(OC)c(OC)c(OC)c3)o2)cc1` gave Bm FixLJ act -1.9.
`Nc1nnnn1CC(=O)N(Cc1ccco1)Cc1ccco1` gave Bm FixLJ act -0.14.
Screening CCc1ccc(NC(=O)Cn2c(=O)n(CCCCC(=O)NCc3ccccc3Cl)c(=O)c3ccccc32)cc1 returned Bm FixLJ act -1.4.
For COC1CN(C(=O)c2ccc3c(c2)CCO3)CC1Cc1cc(C)no1 (stereo not given) the results were Bm FixLJ act 0.09.
For COc1ccccc1NC(=O)Cn1c(=O)n(Cc2cccs2)c(=O)c2cccnc21 the results were Bm FixLJ act 0.58.
Cc1ccc(NC(=O)C2CCCN(S(=O)(=O)c3cccc4cccnc34)C2)cc1 (stereo not given) was read as Bm FixLJ act -0.46.
Screening COc1ccc(-n2c(-c3ccco3)nc3c(cnn3-c3ccccc3Cl)c2=O)cc1 returned Bm FixLJ act -0.8.
CCC1CN(C(=O)c2cc(C(C)=O)n[nH]2)CCC(=O)N1Cc1ccccc1 (stereo not given) was read as Bm FixLJ act -0.86.
Screening COCCNC(=O)C1CCN(C(=O)c2cc3sccc3n2Cc2ccc(Cl)cc2)CC1 returned Bm FixLJ act 0.12.
For Cc1ccccc1CNC(=O)C(C)n1nc(C)n2c(cc3occc32)c1=O (stereo not given) the results were Bm FixLJ act -1.4.
Screening CCC(Sc1nc2ccncc2[nH]1)C(=O)Nc1ccc(F)cc1 (stereo not given) returned Bm FixLJ act 0.22.
For O=C(NC1CCCNC1=O)c1ccccc1OCc1ccccc1 (stereo not given) the results were Bm FixLJ act -0.97.
Screening O=C(Nc1cccc(-c2cscn2)c1)NC1CCC(O)CC1 (stereo not given) returned Bm FixLJ act 0.62.
Screening CCn1nccc1-c1nc(Cc2ccc(OC)cc2)nn1CC(C)(C)O returned Bm FixLJ act 0.71.
For CC(C)[C@H](N)C(=O)OCCOCn1cnc2c(=O)[nH]c(N)nc21 the results were Bm FixLJ act -1.9.
For CCN(C(=O)Cn1cnc2c1c(=O)n(C)c(=O)n2C)c1ccccc1C the results were Bm FixLJ act -1.7.
Screening Cn1cc(C(NC(=O)c2ccc(O)c(F)c2)C2CC(O)C2)cn1 (stereo not given) returned Bm FixLJ act -0.67.

14 compounds already listed, ordered by molar mass, lowest first.
`Nc1nnnn1CC(=O)N(Cc1ccco1)Cc1ccco1` gave Bm FixLJ act -0.14.
Screening O=C(Nc1cccc(-c2cscn2)c1)NC1CCC(O)CC1 (stereo not given) returned Bm FixLJ act 0.62.
Screening Cn1cc(C(NC(=O)c2ccc(O)c(F)c2)C2CC(O)C2)cn1 (stereo not given) returned Bm FixLJ act -0.67.
For CC(C)[C@H](N)C(=O)OCCOCn1cnc2c(=O)[nH]c(N)nc21 the results were Bm FixLJ act -1.9.
Screening CCC(Sc1nc2ccncc2[nH]1)C(=O)Nc1ccc(F)cc1 (stereo not given) returned Bm FixLJ act 0.22.
For COC1CN(C(=O)c2ccc3c(c2)CCO3)CC1Cc1cc(C)no1 (stereo not given) the results were Bm FixLJ act 0.09.
Screening CCn1nccc1-c1nc(Cc2ccc(OC)cc2)nn1CC(C)(C)O returned Bm FixLJ act 0.71.
For Cc1ccccc1CNC(=O)C(C)n1nc(C)n2c(cc3occc32)c1=O (stereo not given) the results were Bm FixLJ act -1.4.
CCC1CN(C(=O)c2cc(C(C)=O)n[nH]2)CCC(=O)N1Cc1ccccc1 (stereo not given) was read as Bm FixLJ act -0.86.
Cc1ccc(NC(=O)C2CCCN(S(=O)(=O)c3cccc4cccnc34)C2)cc1 (stereo not given) was read as Bm FixLJ act -0.46.
Screening COc1ccc(-n2c(-c3ccco3)nc3c(cnn3-c3ccccc3Cl)c2=O)cc1 returned Bm FixLJ act -0.8.
For COc1ccccc1NC(=O)Cn1c(=O)n(Cc2cccs2)c(=O)c2cccnc21 the results were Bm FixLJ act 0.58.
Screening COCCNC(=O)C1CCN(C(=O)c2cc3sccc3n2Cc2ccc(Cl)cc2)CC1 returned Bm FixLJ act 0.12.
Screening CCc1ccc(NC(=O)Cn2c(=O)n(CCCCC(=O)NCc3ccccc3Cl)c(=O)c3ccccc32)cc1 returned Bm FixLJ act -1.4.

New compounds follow.
Nc1nc(Cl)nc2c1ncn2[C@@H]1O[C@H](CO)[C@@H](O)[C@@H]1F was read as Bm FixLJ act 0.38.
For CCc1ccc(-n2c(CCC(=O)O)ccc2-c2cccs2)cc1 the results were Bm FixLJ act -1.
Cc1c2cnn(-c3ccccc3)c(=O)c2c(C)n1C(C)C(=O)NCc1cccc(Br)c1 (stereo not given) was read as Bm FixLJ act -2.9.
For Cc1nccc(-c2cccc(NC(=O)NCCCc3c(C)n[nH]c3C)c2)n1 the results were Bm FixLJ act -2.
For CCc1ccc(NC(=O)Cn2c(=O)n(CCCC(=O)NCCc3ccc(OC)c(OC)c3)c(=O)c3ccccc32)cc1 the results were Bm FixLJ act -2.4.
`COc1ccccc1OC1CCN(C(=O)c2onc3c2CCCC3)CC1` gave Bm FixLJ act -0.66.
`CCOC(=O)c1c(N)n(-c2ccc(CC)cc2)c2nc3ccccc3nc12` gave Bm FixLJ act 0.28.
Cc1ccccc1NC(=O)c1c(NC(=O)c2ccco2)sc2c1CCC(C(C)(C)C)C2 (stereo not given) was read as Bm FixLJ act -1.2.
Screening CC1CCc2c(sc3nnn(Cc4ccccc4Cl)c(=O)c23)C1 (stereo not given) returned Bm FixLJ act -0.52.
`COc1ccc(S(=O)(=O)Nc2cc(-c3cn4cccc(C)c4n3)ccc2C)cc1C` gave Bm FixLJ act -1.4.
Screening CN(Cc1ccccc1)C(=O)c1ccc2c(c1)N(Cc1ccccc1F)C(=O)c1ccccc1S2(=O)=O returned Bm FixLJ act 0.4.
`Cc1c(N(C)C)c(=O)n(-c2ccccc2)n1C` gave Bm FixLJ act -1.1.
Cc1cccc(N2CCN(C(=O)C3CCN(C(=O)c4cc5sccc5n4C)CC3)CC2C)c1 (stereo not given) was read as Bm FixLJ act -0.68.
Cc1ccc(OCC(=O)Nc2ccc(Cl)cc2C(=O)c2ccccc2)cc1C was read as Bm FixLJ act -0.91.
For CCOc1ccc(S(=O)(=O)Nc2cccc(OC)c2)c2cccnc12 the results were Bm FixLJ act 0.1.
Cc1cc(C(F)(F)F)n2ncc(C(=O)NCCc3cccc(=O)[nH]3)c2n1 was read as Bm FixLJ act -1.1.
`CCc1nc(CCNC(=O)Nc2ccc(OCC3CCCCO3)cc2)no1` (stereo not given) gave Bm FixLJ act 0.09.
For COc1cccc(C(=O)Nc2cccc(OCc3cc(=O)n4c5c(sc4n3)CCCC5)c2)c1 the results were Bm FixLJ act -1.4.
For CC(=O)Nc1ccc(NC(=O)c2c(-c3ccccc3)noc2C)cc1 the results were Bm FixLJ act -1.7.
Screening Cc1cc(C(F)(F)F)nc(CCNC(=O)c2c(C)cc(C)[nH]c2=O)n1 returned Bm FixLJ act -3.4.
Cc1ccc(C)c(N2CCN(C3=C(c4ccccc4)C(=O)c4ccccc43)CC2)c1 was read as Bm FixLJ act 0.03.
Screening CCN(CC)CCCNc1oc(/C=C/c2ccc(OC)c(OC)c2)nc1C#N returned Bm FixLJ act -1.1.
`CCCOc1ccccc1C(=O)N1CC(Cc2cc(C)no2)C(OC)C1` (stereo not given) gave Bm FixLJ act -0.49.
`COc1cccc(NC(=O)CN2C(=O)c3cccc4cccc2c34)c1` gave Bm FixLJ act 0.96.
`COc1ccccc1-c1nc(S(=O)(=O)c2ccc(Cl)cc2)c(N2CCCCCC2)o1` gave Bm FixLJ act -0.45.
Screening CC1OC(O[C@H]2/C=C/C=C/C=C/C=C/C=C/C=C/C=C/[C@H](C)[C@@H](O)[C@@H](C)[C@H](C)OC(=O)CC(O)CC(O)CCC(O)C(O)CC(O)CC3(O)C[C@H](O)C(C(=O)O)C(C2)O3)C(O)[C@H](N)C1O (stereo not given in full) returned Bm FixLJ act -0.3.
Screening CC(C)CNc1cc(NC2CCCCC2)c2c3c(onc13)-c1ccccc1C2=O returned Bm FixLJ act 0.46.
`CCc1ccc(C2CC(=O)Nc3cc4c(cc32)OCO4)cc1` (stereo not given) gave Bm FixLJ act -0.86.
CN/C(=C/[N+](=O)[O-])NCCSCc1ccc(CN(C)C)o1 was read as Bm FixLJ act -1.3.
For COCCOc1cccc(NC(=O)NCCC2CCCN2)c1 (stereo not given) the results were Bm FixLJ act -0.86.
For CN(C(=O)Cn1cc(S(=O)(=O)N2CCN(c3ccccc3F)CC2)c2ccccc2c1=O)c1ccc(Cl)cc1 the results were Bm FixLJ act 0.38.
`CCCCOc1ccccc1C(=O)Nc1onc2c1CCCC2` gave Bm FixLJ act -1.4.
Screening CCn1c(CO)nnc1C1CC(NC(=O)Cc2cc(F)cc(F)c2)C1 (stereo not given) returned Bm FixLJ act -0.85.
Screening Cc1cccc(C)c1OCC(=O)Nc1ccc(Cl)cc1C(=O)c1ccccc1 returned Bm FixLJ act 1.9.
`O=C(NCCc1ccccc1)c1ccc2c(c1)N(Cc1ccccc1)C(=O)c1ccccc1S2=O` (stereo not given) gave Bm FixLJ act -1.3.
`COc1ccc(OC)c(NC(=O)Cn2cc(C(=O)c3ccccc3)c3ccccc32)c1` gave Bm FixLJ act 0.62.
`COc1ccc(-c2nc(CN3CCC(C(=O)NCCCN4CCN(c5ccccc5F)CC4)CC3)c(C)o2)cc1OC` gave Bm FixLJ act 0.47.
Screening CCn1cc(CNC(=O)N2CCC(Oc3ccccc3)C2)c(C)n1 (stereo not given) returned Bm FixLJ act -2.1.
Screening CCOc1ccc(CCNC(=O)c2cn(C)c3ccc(S(=O)(=O)N4CCCCCC4)cc3c2=O)cc1OCC returned Bm FixLJ act -1.7.
`Cc1ccc(CN2CCSc3ccc(C(=O)NCCc4ccccc4)cc32)cc1` gave Bm FixLJ act 1.6.
COc1ccccc1-c1c(C)nn(C)c1NC(=O)C(C)N1CCN(C)CC1 (stereo not given) was read as Bm FixLJ act -1.1.
`O=S(=O)(c1ccccc1)c1nc(-c2ccc(F)cc2)oc1NCc1ccccc1` gave Bm FixLJ act -1.4.
CCN(CC)C(=O)COc1ccc(-c2nnc(Nc3ccc(OC)c(C(=O)NC)c3)c3ccccc23)cc1 was read as Bm FixLJ act -3.1.
Screening CCOc1ccc(CCNC(=O)CN2C(=O)COc3ccc(S(=O)(=O)N4CCC(C)CC4)cc32)cc1 returned Bm FixLJ act -0.54.
Screening Cc1n[nH]c(C)c1CCN(C)C(=O)NC(c1ccccn1)C(F)(F)F (stereo not given) returned Bm FixLJ act -0.26.
Screening Cc1cccc(OCC(=O)NCCc2nnc(N)s2)c1C returned Bm FixLJ act 0.21.
`CCOC(=O)C1CCCN(C(=O)c2nn(-c3ccc(OC)cc3)c(=O)c3c2c2ccccc2n3C)C1` (stereo not given) gave Bm FixLJ act 0.39.
Screening COc1ccc(CC(=O)N2CCc3cc(OC)c(OC)cc3C2COc2ccc3c(C)cc(=O)oc3c2)cc1OC (stereo not given) returned Bm FixLJ act 0.45.
For Cn1ccc2ccc(C(=O)NCC(c3cccnc3)N3CCCCC3)cc21 (stereo not given) the results were Bm FixLJ act -0.02.

These rows are one share of the data. The share of hits here may be higher or lower than overall.
